Assay outcomes as filed in PubChem BioAssay.
D2 ag: agonists of human D2 dopamine receptor (beta-arrestin); P14416; DiscoveRx PathHunter D2 beta-arrestin, luminescence, 90 min; 100% = 57 uM dopamine signal; activation, % (no concentration beside the values); actives 0.084% (n = 360,000); AID 624465; in the data active = activation above about 40%; inconclusive = about 15% to 40%; inactive = below about 15%; also: compound concentration not given in the record; the text of the record calls up to 30% inactive
Target sequence (P14416 whole entry, looked up): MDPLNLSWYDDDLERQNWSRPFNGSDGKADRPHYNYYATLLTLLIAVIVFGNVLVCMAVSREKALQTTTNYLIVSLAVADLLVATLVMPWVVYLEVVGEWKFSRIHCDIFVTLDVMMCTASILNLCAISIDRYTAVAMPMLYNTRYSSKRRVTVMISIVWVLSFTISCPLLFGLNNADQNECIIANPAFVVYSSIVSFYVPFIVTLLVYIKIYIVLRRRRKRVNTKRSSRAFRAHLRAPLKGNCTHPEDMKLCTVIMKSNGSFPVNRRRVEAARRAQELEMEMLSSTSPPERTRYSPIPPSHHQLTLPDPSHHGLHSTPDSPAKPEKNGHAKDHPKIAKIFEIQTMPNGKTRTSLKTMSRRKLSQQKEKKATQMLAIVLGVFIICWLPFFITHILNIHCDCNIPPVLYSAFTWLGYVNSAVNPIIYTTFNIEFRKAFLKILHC
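Agonist mode: compounds alone added to overnight-plated D2 PathHunter cells for 90 min at 37 C, with 57 uM final dopamine (EC100) defining full response. Beta-arrestin recruitment detected by chemiluminescent reagent, read after 1 h at ambient temperature.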
D2 potentiator: positive allosteric modulators of human D2 dopamine receptor; P14416; DiscoveRx D2 beta-arrestin cells, luminescence, 90 min; 100% = 57 uM dopamine signal; potentiation, % (no concentration beside the values); actives 0.23% (n = 360,000); AID 624464; active = potentiation of 50% or more; inconclusive = 30% to 50%; inactive = 30% or less;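 also: compound concentration not given in the record; tested on top of an EC20 dose of dopamine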
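PathHunter D2 cells, attached overnight at 37 deg C, received compound in DMSO plus dopamine at EC20 (50 nM final) for 90 min at 37 deg C. Beta-arrestin recruitment was read as luminescence after 1 h with detection reagent at ambient temperature.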
PINK1 modulator: PINK1 expression modulation. PINK1 immunofluorescence, high-content cytometry, 24 h. Potency, µM (doses to about 76.6 µM), inactives show at the top dose activation (PINK1 increase), hits mostly activators. actives 0.2% (n = 410,000). AID 624263; active = well fitted activation curve with a large enough effect; inconclusive = small, poorly fitted or top-dose-only effect; inactive = flat fitted curve, though single readings scatter; cell line not stated here;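 also: potency is read from the fitted curve at half-maximal effect; % of control where 0% means no effect; nearly all actives have a fitted effect of over 65% in size; a mitochondrial uncoupler was the plate control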
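A stable cell line was treated with compounds at 5 concentrations for 24 hours, with CCCP as control. PINK1 levels and mitochondrial localization were measured by immunofluorescence with mitochondrial, cell and nuclear markers after fixation, read by laser-scanning cytometry.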
TRPML1 blocker: human mucolipin-1 channel inhibition | Q9GZU1 | TRPML1-inducible cells, Ca2+ dye fluorescence, FDSS; stronger effect = lower value; inhibition of EC80 agonist-evoked calcium signal | activity change, negative = inhibition, % (test concentration not listed) | AID 624415 | actives 0.02% (n = 390,000); in the data active means activity change below about -50%; inconclusive means about -30% to -50%; inactive means above about -30%;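 also: stimulus is agonist 54-4 at its EC80 concentration; % is scaled to controls: 0 for no effect and ±100 for the full control effect; compound concentration not given in the record; the text of the record puts the active cut at -80%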
Target sequence (Q9GZU1 whole entry, looked up): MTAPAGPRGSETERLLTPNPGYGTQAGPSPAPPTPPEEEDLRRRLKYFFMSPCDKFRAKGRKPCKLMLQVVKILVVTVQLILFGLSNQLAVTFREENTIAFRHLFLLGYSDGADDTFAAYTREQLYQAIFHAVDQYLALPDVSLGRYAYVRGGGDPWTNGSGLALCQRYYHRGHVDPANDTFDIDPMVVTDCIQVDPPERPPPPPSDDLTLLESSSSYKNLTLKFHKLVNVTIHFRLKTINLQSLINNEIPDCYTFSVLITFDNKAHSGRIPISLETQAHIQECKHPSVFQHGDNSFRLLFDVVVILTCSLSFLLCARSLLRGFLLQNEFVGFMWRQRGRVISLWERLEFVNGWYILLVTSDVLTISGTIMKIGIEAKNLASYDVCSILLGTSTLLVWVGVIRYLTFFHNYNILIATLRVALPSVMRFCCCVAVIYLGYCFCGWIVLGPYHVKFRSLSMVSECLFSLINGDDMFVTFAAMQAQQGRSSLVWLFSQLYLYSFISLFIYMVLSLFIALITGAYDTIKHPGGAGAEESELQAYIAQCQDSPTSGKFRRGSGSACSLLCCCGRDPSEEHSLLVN
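TRPML1-DL cells, Tet-induced overnight (~16 h, 37 °C) at 1,500 cells/well, were loaded with Ca8 no-wash dye plus quencher for 45-90 min at room temperature. Compounds were pinned during FDSS kinetic reading; agonist 54-4 at EC80 (4 uM final) then added.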
TRPML1 ag: agonists of human TRPML1 channel; activation, % (no concentration beside the values); TRPML1-expressing cells, Ca2+ dye fluorescence, FDSS; host cell line not named in the record; reference of the full effect not given here; AID 624414; Q9GZU1; actives 0.12% (n = 410,000); in the data active = activation above about 50%; inconclusive = about 30% to 50%; inactive = below about 30%; also: 0% is about no effect; the text of the record puts the active cut at 80%
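Agonist activity was taken from a 110 s kinetic Ca2+ dye read on the FDSS after pinning compounds onto TRPML1-DL cells. The cells were seeded at 1,500/well with Tet inducer, incubated about 16 h, then dye-loaded at room temperature.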
Six1-Eya2 inh: Six1/Eya2 interaction inhibition; actives 0.56% (n = 360,000); Q15475+O00167; activity change, % (no concentration beside the values); AlphaScreen GST-Six1/His-Eya2 binding, biochemical; stronger effect = lower value; control for the full effect not named in the record; AID 651725; in the data active = activity change below about -65%; inconclusive = about -30% to -65%; inactive = above about -30%; also: % is scaled to controls: 0 for no effect and ±100 for the full control effect; compound concentration not given in the record
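AlphaScreen luminescence read after one hour at 37 °C in darkness. Pin-transferred compounds met GST-Six1 and His-Eya2 protein (5X stock 250 nM/500 nM) plus glutathione donor and Ni-chelate acceptor beads (5X, 50 ug/mL).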
Starred values were filed as active, the others as inactive; ? = inconclusive; . = not tested or not shown; [ ] = dose if it differs, or a comment. Compounds as they come. Share with any hit: about 1%.

Start of the listing, in advance (13 entries):
Values run as follows: TRPML1 ag | Six1-Eya2 inh | D2 potentiator | PINK1 modulator | TRPML1 blocker | D2 ag
1	CCOc1ncccc1C(=O)Nc1cccc(Cl)c1Cl
    -0.5 | 10 | -4 | 4.5% | ? | -2.8
2	Cc1cc(C)cc(-n2c(SCC(=O)Nc3nnc(C)s3)nc3c([nH]c4ccccc43)c2=O)c1
    2.5 | . | . | 20% | 10 | .
3	COCCCNC(=O)CNC(=S)N(Cc1cc(OC)c(OC)c(OC)c1)C1CCCC1
    0.4 | 2 | -6 | ? | -7 | 0.3
4	CCOC(=O)Cc1csc(NC(=O)CSc2nc3sc(C(=O)O)c(C)c3c(=O)[nH]2)n1
    0.8 | -2 | -10 | ? | 12 | 0.4
5	O=C(COC(=O)c1cncc(Br)c1)NC1CC1
    -0.4 | 6 | -13 | 19%[38.3 µM] | -19 | -3.1
6	CCN1C(=NCc2ccco2)N[C@@H](c2cccc(F)c2)C(C(=O)OC)=C1C
    -0.5 | 4 | -7 | 0.7% | 18 | -0.6
7	O=C(Cc1ccccc1F)Nc1ccc(Cl)nc1
    -0.2 | -1 | -9 | 0.9%[38.3 µM] | 7 | -2.6
8	Cc1cccc(C)c1NC(=O)Cn1cc(S(=O)(=O)Cc2ccc(F)cc2)c2ccccc21
    1.2 | . | . | -1.2% | -6 | .
9	COc1ccc(/C=C/C(=O)OCC(=O)NC2CC2)c(OC)c1
    -0.2 | 0 | -3 | 1.3% | -8 | 0.9
10	O=C(Nc1nnc(Cc2ccccc2F)s1)Nc1ccccc1F
    0.5 | 2 | 2 | 1.9% | 9 | 5.0
11	COc1cc(C2CC(=O)N(CC(=O)NCc3ccco3)c3ccccc3S2)cc(OC)c1OC (configuration not stated)
    0.0 | -8 | -14 | 5.5%[38.3 µM] | 20 | -3.7
12	Cc1ccc(CNC(=O)CCc2c(C)c3cc4c(C)coc4cc3oc2=O)cc1
    -0.6 | . | . | 3.1% | 32 | .
13	COc1ccc(NC(=O)/C(=C/c2ccc3c(c2)OCO3)NC(C)=O)cc1
    -0.1 | 5 | -3 | -0.6% | -12 | -2.7

This part in full (from the top)
Values run as follows: TRPML1 ag | Six1-Eya2 inh | D2 potentiator | PINK1 modulator | TRPML1 blocker | D2 ag
1	CCOc1ncccc1C(=O)Nc1cccc(Cl)c1Cl
    -0.5 | 10 | -4 | 4.5% | ? | -2.8
2	Cc1cc(C)cc(-n2c(SCC(=O)Nc3nnc(C)s3)nc3c([nH]c4ccccc43)c2=O)c1
    2.5 | . | . | 20% | 10 | .
3	COCCCNC(=O)CNC(=S)N(Cc1cc(OC)c(OC)c(OC)c1)C1CCCC1
    0.4 | 2 | -6 | ? | -7 | 0.3
4	CCOC(=O)Cc1csc(NC(=O)CSc2nc3sc(C(=O)O)c(C)c3c(=O)[nH]2)n1
    0.8 | -2 | -10 | ? | 12 | 0.4
5	O=C(COC(=O)c1cncc(Br)c1)NC1CC1
    -0.4 | 6 | -13 | 19%[38.3 µM] | -19 | -3.1
6	CCN1C(=NCc2ccco2)N[C@@H](c2cccc(F)c2)C(C(=O)OC)=C1C
    -0.5 | 4 | -7 | 0.7% | 18 | -0.6
7	O=C(Cc1ccccc1F)Nc1ccc(Cl)nc1
    -0.2 | -1 | -9 | 0.9%[38.3 µM] | 7 | -2.6
8	Cc1cccc(C)c1NC(=O)Cn1cc(S(=O)(=O)Cc2ccc(F)cc2)c2ccccc21
    1.2 | . | . | -1.2% | -6 | .
9	COc1ccc(/C=C/C(=O)OCC(=O)NC2CC2)c(OC)c1
    -0.2 | 0 | -3 | 1.3% | -8 | 0.9
10	O=C(Nc1nnc(Cc2ccccc2F)s1)Nc1ccccc1F
    0.5 | 2 | 2 | 1.9% | 9 | 5.0
11	COc1cc(C2CC(=O)N(CC(=O)NCc3ccco3)c3ccccc3S2)cc(OC)c1OC (configuration not stated)
    0.0 | -8 | -14 | 5.5%[38.3 µM] | 20 | -3.7
12	Cc1ccc(CNC(=O)CCc2c(C)c3cc4c(C)coc4cc3oc2=O)cc1
    -0.6 | . | . | 3.1% | 32 | .
13	COc1ccc(NC(=O)/C(=C/c2ccc3c(c2)OCO3)NC(C)=O)cc1
    -0.1 | 5 | -3 | -0.6% | -12 | -2.7
14	N#CCCn1cc(C=O)c(-c2cccs2)n1
    0.3 | 20 | -6 | 1.7% | 2 | -3.7
15	Nc1cc(C(F)(F)F)ccc1OCC1CCCO1 (configuration not stated)
    -0.1 | 3 | 0 | 1.5% | 8 | -3.7
16	CCOc1ccc(NC(=O)C[n+]2ccccc2)cc1
    0.5 | 4 | -12 | 0.3% | 0 | -0.8
17	Cc1cccc(NC(=O)CNC(=O)Cc2ccc(S(=O)(=O)N3CCOCC3)s2)c1C
    -0.1 | 9 | 7 | 0.1% | -20 | -1.3
18	Cc1ccc(C(=O)Nc2nc(=O)n(C(=O)C3CC3)s2)cc1
    -0.4 | 9 | -23 | -0.1% | -3 | -3.6
19	Cc1cccc(OCc2nnc(SCC(=O)NC3CCCC3)n2C)c1
    -1.1 | 10 | -8 | 1.8% | 0 | -5.6
20	COc1cccc(CNC(=O)c2cccc(NC(=O)C3=C(C)OCCS3)c2)c1
    -0.2 | 3 | 5 | 0.2% | -10 | -0.8
21	Cc1cc2cc(CNS(=O)(=O)N(C)C)ccc2[nH]1
    0.2 | -4 | -3 | 1.2% | -1 | 1.5
22	COc1ccc2c(C)cc(SCC(=O)Nc3ncc(Cl)cc3Cl)nc2c1
    2.4 | 14 | -5 | 6.4% | 15 | 0.5
23	CCCNC(=O)NC(=O)CSc1cccc(C(F)(F)F)c1
    4.2 | 6 | 2 | -0.3% | 34 | -1.4
24	CC(C)c1ccc(Nc2c(-c3ccccn3)nc3ccccn23)cc1
    0.8 | . | . | 3.3% | 18 | .
25	Cc1ccc(NC(=O)C2CCCO2)cc1[N+](=O)[O-] (configuration not stated)
    -0.5 | 0 | 0 | -2.3% | 11 | 2.1
26	CCN1CCN(c2ccc(S(=O)(=O)N3CCOCC3)cc2NC(=O)/C=C/c2ccc([N+](=O)[O-])cc2)CC1
    -0.2 | 0 | -1 | 0.4% | -1 | 2.6
27	C[C@@H]1CNC(=O)c2c(C(=O)NCC(=O)OC(C)(C)C)ncn21
    . | -7 | . | 1.7% | . | 0.1
28	O=C(NNC(=O)c1ccccc1Br)c1cccc(Cl)c1
    1.9 | -10 | -7 | ? | -6 | -1.0
29	CCn1c2ccccc2c2nc3cc(C(=O)O)ccc3nc21
    -0.6 | -11 | 0 | 3.2% | 13 | -3.8
30	O=c1[nH]c(NCCO)nc2c1C1(CCCCC1)Cc1ccccc1-2
    0.1 | 0 | -9 | -1.1% | -4 | 2.3
31	O=C(COC(=O)c1ccc(S(=O)(=O)N2CCOCC2)cc1)NCc1ccco1
    0.7 | 7 | -13 | 1.4% | 2 | 5.1
32	COc1cc(C(=O)Nc2nc(-c3ccc(Cl)cc3)c(C)s2)ccc1OCC(=O)Nc1ccc(F)cc1
    1.5 | -1 | 0 | -2.0% | 9 | 1.7
33	Oc1ccc(-c2nccc(-c3ccccn3)n2)cc1
    . | -9 | 6 | 2.3% | . | 2.9
34	Cc1cc(C(=O)COC(=O)C2=COCCO2)c(C)n1-c1ccc2c(c1)OCO2
    1.7 | -12 | -3 | 0.7% | 2 | -2.7
35	O=C(NCCCN1CCCC1)c1ccc2c(c1)N(Cc1cccc(Cl)c1)C(=O)c1ccccc1S2(=O)=O
    0.5 | 1 | -9 | 5.0% | 16 | 12
36	c1ccc(OCCn2cnc3ccccc32)cc1
    -0.3 | -1 | -12 | 1.4%[38.3 µM] | 3 | -0.4
37	Cc1cccc(NC(=O)Cn2c(O)c(N=NC(=O)c3ccccc3O)c3ccccc32)c1
    -0.6 | -12 | -5 | -1.6% | 10 | -9.5
38	COc1cc(C(=O)OC(C)CN2CCN(C)CC2)cc(OC)c1OC (configuration not stated)
    -0.9 | 10 | -10 | -1.6% | -8 | -2.1
39	FC(F)(F)c1ccc2nnc(-c3c(Cl)cccc3Cl)n2c1
    -1.1 | 3 | 17 | 2.1% | -1 | 2.3
40	C/C(CCc1ccccc1)=N\NC(=O)c1ccccc1
    -0.1 | 8 | -5 | 0.1% | -7 | -7.3
41	Cc1ccc(S(=O)(=O)N2CCN(C3CC(=O)N(Cc4ccccc4)C3=O)CC2)cc1C (configuration not stated)
    3.9 | -1 | -2 | -1.2%[38.3 µM] | 29 | 0.2
42	CCCCOC(=O)CCn1c(=S)oc2ccccc21
    0.9 | 21 | 16 | -1.9% | 19 | -0.3
43	COc1ccc2[nH]c(C(=O)Nc3ccc(C)c(F)c3)cc2c1
    1.7 | -3 | -3 | 0.9% | -21 | -0.6
44	CCN(C(=O)CSc1nc2cc(Cl)ccc2c(=O)n1CC(C)C)C1CCS(=O)(=O)C1 (configuration not stated)
    0.4 | -7 | -4 | 9.5% | 0 | -1.2
45	O=C(CCc1c[nH]c2ccccc12)NCCc1ccc(O)cc1
    -0.3 | -4 | -3 | 1.8% | -1 | 8.1
46	C=C(C)Cn1c(Sc2nc3ccccc3[nH]2)nc2c1c(=O)[nH]c(=O)n2C
    -0.7 | 3 | -6 | 0.1% | 9 | -4.4
47	COc1ccc(C(=O)NCCn2cc(SCc3cccc(F)c3)c3ccccc32)cc1OC
    0.2 | . | . | 1.4% | 30 | .
48	Cc1ccc(N2C(=O)c3ccc(C(=O)N4CCN(c5cccc(C)c5C)CC4)cc3C2=O)cc1
    -0.2 | 0 | -8 | 0.1% | -1 | -3.3
49	CCOC(=O)C1C(=O)NC(N2CCCCC2)=NC1C(C)C (configuration not stated)
    -0.3 | 0 | -6 | 3.6% | 11 | -4.3
50	CN(C1=C(NC(=O)c2ccccc2)C(=O)c2ccccc2C1=O)C1CCS(=O)(=O)C1 (configuration not stated)
    0.9 | -13 | 3 | 0.0% | -13 | 4.2
51	COCCCN(C(=S)NC(=O)C(C)(C)C)c1c(N)n(Cc2ccccc2)c(=O)[nH]c1=O
    0.3 | 14 | -13 | -0.9% | -2 | -1.9
52	COc1ccc(Br)cc1CNC(=O)c1cc(=O)[nH]c2ccc(S(=O)(=O)N3CCCC3)cc12
    -0.2 | . | . | 1.4% | 17 | .
53	Cn1c(=O)c2[nH]c(CN3CCN(Cc4ccccc4)CC3)nc2n(C)c1=O
    0.6 | -4 | -20 | 0.4% | 7 | -3.4
54	Cc1nc2c(-c3ccccc3)c(C)nn2c(C)c1CCC(=O)N1CCN(c2ccc(F)cc2)CC1
    -1.3 | . | . | 0.6% | -2 | .
55	O=S(=O)(c1cccc(Cl)c1)c1nnn2c1nc(NC1CCCCCC1)c1sccc12
    -1.0 | . | . | -0.5% | 9 | .
56	COCc1c(C(=O)Nc2cccc(S(=O)(=O)N3CCCCC3)c2)oc2ccccc12
    1.9 | 3 | -25 | -0.6% | 33 | -2.0
57	CSc1ccc(CN(C)C(=O)c2cc(=O)c3ccccc3o2)cc1
    1.3 | -7 | -2 | -2.6% | 18 | -2.9
58	S=C(NC1CCCCC1)N1CCc2ccccc2C1
    0.2 | 0 | -3 | 10% | 42 | 3.1
